Rango release inh – prevents RanGTP from dissociating the Rango-importin beta complex. AID 540253. hit rate 0.071% among 340,000. Biochemical FRET Rango-importin beta, RanGTP-induced dissociation. Potency, µM (highest dose often 46.1 µM), inactives show top-dose activity change, negative = inhibition. O95149+P62826; active means falling FRET ratio curve, often poorly fitted, with flat reads before Ran was added; inconclusive means other falling curves, or compound fluorescence or quenching; inactive means flat or rising ratio curve;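 note: potency is the fitted concentration of half-maximal effect; % of control where 0% means no effect; nearly all actives have a fitted effect of over 45% in size; -100% = wells without RanGTP and RCC1; the record marks most hits as doubtful in a second field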
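Compounds preincubate 5 min with complex of recombinant Rango and importin beta in PBS with 1 mM DTT. Ran (0.6 uM) loaded with 2 mM GTP plus 0.2 uM RCC1 starts dissociation; FRET is recorded 45 min later.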
Rango complex inh – inhibitors of Rango-importin beta complex formation; hit rate 0.031% among 340,000; Potency, µM (doses to about 92.2 µM), inactives show top-dose inhibition of complex formation; AID 540263; Q14974; Rango CFP/YFP FRET sensor + importin beta, 45 min; active = rising FRET ratio curve, often small or poorly fitted; inconclusive = mostly compound fluorescence or quenching in the first reads; inactive = flat curves in all reads;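 note: potency is the fitted concentration of half-maximal effect; 0% = DMSO wells and 100% = buffer wells lacking importin beta; nearly all actives have a fitted effect of over 15% in size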
Target sequence (Q14974 whole entry, looked up): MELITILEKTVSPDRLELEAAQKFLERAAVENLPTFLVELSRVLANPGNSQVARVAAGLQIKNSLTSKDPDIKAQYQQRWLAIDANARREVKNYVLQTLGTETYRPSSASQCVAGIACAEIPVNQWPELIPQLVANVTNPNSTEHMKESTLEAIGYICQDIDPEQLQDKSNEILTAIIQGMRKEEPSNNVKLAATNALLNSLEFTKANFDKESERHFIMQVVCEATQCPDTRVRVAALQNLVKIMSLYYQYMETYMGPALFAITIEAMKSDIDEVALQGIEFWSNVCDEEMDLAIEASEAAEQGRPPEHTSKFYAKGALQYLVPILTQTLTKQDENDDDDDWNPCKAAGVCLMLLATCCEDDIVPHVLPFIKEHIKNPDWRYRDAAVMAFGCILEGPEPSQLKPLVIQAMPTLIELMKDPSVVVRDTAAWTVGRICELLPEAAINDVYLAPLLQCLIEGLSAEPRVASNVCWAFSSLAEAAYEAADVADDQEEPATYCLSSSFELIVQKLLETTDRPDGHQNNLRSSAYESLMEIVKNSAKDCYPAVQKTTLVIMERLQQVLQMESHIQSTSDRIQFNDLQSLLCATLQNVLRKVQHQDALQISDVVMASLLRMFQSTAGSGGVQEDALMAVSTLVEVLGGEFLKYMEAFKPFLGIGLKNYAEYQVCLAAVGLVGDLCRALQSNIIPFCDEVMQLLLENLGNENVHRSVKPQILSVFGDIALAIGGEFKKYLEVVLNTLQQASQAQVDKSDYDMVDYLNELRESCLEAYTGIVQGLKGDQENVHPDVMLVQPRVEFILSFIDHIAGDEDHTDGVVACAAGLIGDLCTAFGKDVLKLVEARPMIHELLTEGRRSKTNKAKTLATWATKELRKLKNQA
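Inhibition scored from the CFP 486 nm/YFP 530 nm FRET ratio 45 min after adding 0.125 microM importin beta to 50 nM Rango biosensor preincubated 5 min with compound (room temperature, PBS with DTT, Tween-20, BSA). No-importin wells as positive control.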
GLA inh pH 4.5 – blocks human alpha-galactosidase A at pH 4.5 | P06280 | activity change, negative = inhibition, % at 105 µM | 230,000 tested, under 10 active | AID 1467 | purified enzyme, 4-MU-alpha-Gal fluorescence, pH 4.5; inconclusive = small, poorly fitted or top-dose-only inhibition, or a rising curve; inactive = flat fitted curve, though single readings scatter; no compound was filed as active;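 note: 0% = full activity with enzyme and -100% = basal without enzyme; dose as in the result columns while the protocol names 77 µM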
miR-21 reporter – raises the signal of a miR-21 reporter; Potency, µM (highest dose often 38.3 µM), inactives show at the highest dose reporter change, positive = more light; AID 2288; HeLa miR-21 FLuc reporter, luciferase, 48 h; 340,000 tested, under 10 active; active = well fitted rising curve with a large enough effect; inconclusive = small, poorly fitted or top-dose-only effect; inactive = no such curve, though single readings can be large or run the other way;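 note: % of control where 0% means no effect; miR-21 action dims this reporter so a rising signal means less miR-21 action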
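HeLa miR-21-FLuc reporter line, endogenous miR-21; 2000 cells/well in DMEM/10% FBS; compound titration up to ~40uM final, 48 h, 37 degree Celsius; luciferase detection reagent, 15 min lysis, CCD luminescence.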
* hit, by the source's call; ? = inconclusive; . = not tested or not shown; & = joins results of further samples; [ ] = another dose, or the depositor's remark.

SMILES	Rango release inh	Rango complex inh	GLA inh pH 4.5	miR-21 reporter
Cc1c(OCC(=O)NCCCn2ccnc2)ccc2c3c(c(=O)oc12)CCCC3	-4%	2.1%	.	-23%
COc1ccc(NC(=O)c2cccnc2N2CCOCC2)cc1	-18%	-0.7%	2	0%
O=C(O)/C=C/C(=O)c1c(-c2ccccc2)[nH]c2ccccc12	19%	4.2%	.	9%
C=CCn1c(-c2cccn(Cc3ccccc3)c2=O)n[nH]c1=S	16%	0.0%	-3	1%
COc1ccccc1NC(=O)COC(=O)c1cc2ccccc2cc1O	15%	-3.8%	.	.
COC(=O)c1ccc(C(=O)Nc2ccc3nc(-c4ccncc4)[nH]c3c2)cc1	1%	4.0%	.	7%
COCc1c(Br)c(C)nc(OCC(=O)N/N=C/c2ccco2)c1C#N	-8%	1.4%	2	2%
Cc1cc2ncn(-c3ncnc4scc(-c5ccccc5)c34)c2cc1C	-6%	-3.6%	-1	-1%
O=C(CS(=O)CC(=O)N(c1ccccc1)C(C(=O)NC1CCCCC1)c1ccco1)Nc1ccc(F)cc1 (stereo not drawn)	7%	3.6%	-1	2%
O=C(N/N=C/c1ccc([N+](=O)[O-])o1)C1CCCC1	10%	-0.9%	.	17%
O=C(NCC1CCCO1)c1cc2n(n1)C(C(F)(F)F)CC(c1ccc(Br)cc1)N2 (stereo not drawn)	-12%	2.1%	6	3%
CC(C)c1ccc(C2C(C(=O)c3ccco3)=C(O)C(=O)N2CCN2CCOCC2)cc1 (stereo not drawn)	4%	-0.7%	.	-6%
COc1cccc(NC(=O)C2CCN(S(=O)(=O)c3ccc4c(c3)NC(=O)CO4)CC2)c1	9%	-0.8%	.	11%
O=C1COc2ccc(N3C(=O)c4ccccc4C3=O)cc2N1	.	.	-14	0%
Cc1nn(C)cc1CNC(=O)C1CCC(=O)N(Cc2cccc(C(F)(F)F)c2)C1 (stereo not drawn)	1%	-0.8%	.	0%
Cc1cccc(-c2nsc(SCC(=O)N3CCCC3)n2)c1	-6%	-1.1%	?	-42%
O=C(CCCn1c(=S)[nH]c2cc3c(cc2c1=O)OCO3)NCc1ccco1	18%	?	-5	-1%
Cc1sc(NC(=O)CSc2nnc(C(C)C)n2C)c(C#N)c1C	-24%	-4.6%	3	1%
COc1ccc(CNCc2cn(-c3cccc(F)c3)nc2-c2ccc(C)o2)cc1	?	?	-15	-10%
COc1ccc(Cn2c(=O)sc3ccccc32)cc1OC	20%	1.5%	-6	4%

Single entries from above.
COc1ccccc1NC(=O)COC(=O)c1cc2ccccc2cc1O | Rango release inh = 15%
CC(C)c1ccc(C2C(C(=O)c3ccco3)=C(O)C(=O)N2CCN2CCOCC2)cc1 (stereo not drawn) | Rango complex inh = -0.7%

Continuation.
SMILES	Rango release inh	Rango complex inh	GLA inh pH 4.5	miR-21 reporter
O=C(NNC(=S)NCc1ccco1)c1cccs1	-11%	0.9%	4	-1%
Cc1ccc(C)c(Cn2c(=O)n(CCC(=O)NCc3ccco3)c(=O)c3sccc32)c1	-7%	2.5%	7	-3%
COCc1c(C(=O)N/N=C/c2ccncc2)nnn1-c1nonc1N	25%	2.8%	.	1%
Nc1ncn([C@@H]2O[C@H](CO)[C@@H](O)[C@H]2O)c(=O)n1	-8%	-1.6%	3	.
CC1(C)Cc2ccccc2-c2nnc(C(F)(F)F)n21	-3%	0.5%	-4	-6%
c1ccc(-n2nnnc2Sc2ncnc3sc4c(c23)CCCC4)cc1	27%	1.3%	-6	0%
O=C(Nc1ccc(-c2cn3c(n2)SCC3)cc1)c1ccco1	0%	0.4%	-15	-59%
C=CCc1ccccc1OCC(O)CN1CCN(c2ccccc2OC)CC1 (stereo not drawn)	1%	-0.7%	-24	-4%
CCOc1ccccc1NC(=O)CN1CCN(Cc2ccccc2)CC1	0%	-3.3%	.	-2%
CCOc1ccc(N(CC(=O)NCc2ccccc2)C(=O)CCC(=O)Nc2nccs2)cc1	-3%	-3.8%	.	0%
CC(C)CNC(=O)C(=O)Nc1cc2c3c(c1)C(C)C(=O)N3CCC2 (stereo not drawn)	1%	0.3%	.	-2%
Cc1ccccc1NC(=S)N1CCN(c2ccccc2C)CC1	-2%	-3.0%	.	2%
CCOC(=O)Nc1ccc2c(c1)N(C(=O)CCN1CCN3CCCC3C1)c1ccccc1CC2 (stereo not drawn)	-9%	-3.3%	5	-5%
CCS(=O)(=O)N1CCCC(C(=O)NC2CCC(C)CC2)C1 (stereo not drawn)	4%	0.0%	-4	-26%
Cc1ccccc1C([O-])=Nc1ccc[n+](-c2nc3ccccc3nc2NS(=O)(=O)c2ccccc2)c1	-20%	?	-29	2%
NC(=O)c1cc(S(=O)(=O)NCc2ccccc2)cs1	-4%	3.8%	.	2%&-1%
O=C(Nc1ccccc1Cl)Oc1ccc(-c2ccccc2)cc1	-4%	-3.2%	2	-29%
CC12CC(c3ccccc3O1)N(C(=O)c1ccc(Br)o1)C(=O)N2c1ccccc1 (stereo not drawn)	-9%	0.1%	1	0%
Cc1cc(CO)nn1-c1ccc([N+](=O)[O-])cc1	1%	-1.3%	-8	-2%
Cc1noc(C)c1C(=O)Nc1c(F)cc(F)cc1Br	3%	-0.8%	-3	-13%
O=S(=O)(c1cccc2nsnc12)N1CCNCC1	-3%	4.0%	.	0%
O=C(CN1c2ccccc2Sc2ccccc21)N/N=C/c1ccc(Cl)cc1Cl	17%	6.2%	-6	0%
CC1CCN(c2ccc(NC(=O)Cn3c(=O)oc4ccccc43)cc2)CC1	-8%	-4.1%	.	-7%
Cc1c(N2C(=O)CSC2=S)c(=O)n(-c2ccccc2)n1C	-9%	?	-1	-4%
CN(C(=S)NC(=O)c1ccccc1)c1c(N)n(Cc2ccccc2)c(=O)[nH]c1=O	-1%	-1.7%	8	-1%
O=C(COC(=O)c1cccnc1Cl)NCCc1ccccc1	48%	2.9%	.	.
COc1ccc(C(=O)COC(=O)[C@H](C)Nc2ccc(C(F)(F)F)cc2[N+](=O)[O-])cc1	2%	0.4%	5	-4%
Cc1ccc2c(C)c(C)c(=O)n(C)c2c1	-3%	-2.9%	.	.
C1CCC2=NCCCN2CC1	13%	-2.3%	-7	-9%
O=C(NCc1csc(-c2cccs2)n1)C1CCCCC1	-6%	-2.0%	-2	-65%
CN(CCNC(=O)c1cc2c(-c3ccccc3F)nn(C)c2s1)C1CCCCC1	1%	-0.6%	.	-5%
COc1ccc(CCN2CC(C(=O)N3CCSCC3)CCC2=O)cc1 (stereo not drawn)	2%	2.0%	.	1%
O=C(Nc1cc(Cl)cc(Cl)c1)Nc1cnccn1	6%	-2.1%	.	11%
Cc1ccc(F)c(CNC(=O)C2CCC(=O)N(Cc3ccccn3)C2)c1F (stereo not drawn)	-13%	0.2%	.	-2%
Cc1ccc(C)c(NC(=O)CSc2nnc(-c3ccccc3)n2N)c1	0%	-0.1%	11	8%
Cc1ccc(NC(=O)CN2CCCC2c2cccn2C)cc1C (stereo not drawn)	-3%	2.0%	.	.
O=C(Cc1cccs1)NC(c1ccccc1)c1ccccc1	15%	-0.6%	4	-15%
CC(C)(C)OC(=O)N1CC(O)CC1C(=O)OCC(=O)c1ccc(-c2ccccc2)cc1 (stereo not drawn)	2%	-4.6%	-5[21.1 µM]	-4%
O=Nc1c(O)[nH]c2ccc(Cl)cc12	2%	4.8%	3	-6%
COc1ccc(N2CCN(c3ncccn3)CC2)cc1	-11%	-1.9%	-8	-49%

Quoted from the listing, 24 compounds:
SMILES	Rango release inh	Rango complex inh	GLA inh pH 4.5	miR-21 reporter
O=C(Nc1ccccc1Cl)Oc1ccc(-c2ccccc2)cc1	-4%	-3.2%	2	-29%
CC12CC(c3ccccc3O1)N(C(=O)c1ccc(Br)o1)C(=O)N2c1ccccc1 (stereo not drawn)	-9%	0.1%	1	0%
Cc1cc(CO)nn1-c1ccc([N+](=O)[O-])cc1	1%	-1.3%	-8	-2%
Cc1noc(C)c1C(=O)Nc1c(F)cc(F)cc1Br	3%	-0.8%	-3	-13%
O=S(=O)(c1cccc2nsnc12)N1CCNCC1	-3%	4.0%	.	0%
O=C(CN1c2ccccc2Sc2ccccc21)N/N=C/c1ccc(Cl)cc1Cl	17%	6.2%	-6	0%
CC1CCN(c2ccc(NC(=O)Cn3c(=O)oc4ccccc43)cc2)CC1	-8%	-4.1%	.	-7%
Cc1c(N2C(=O)CSC2=S)c(=O)n(-c2ccccc2)n1C	-9%	?	-1	-4%
CN(C(=S)NC(=O)c1ccccc1)c1c(N)n(Cc2ccccc2)c(=O)[nH]c1=O	-1%	-1.7%	8	-1%
O=C(COC(=O)c1cccnc1Cl)NCCc1ccccc1	48%	2.9%	.	.
COc1ccc(C(=O)COC(=O)[C@H](C)Nc2ccc(C(F)(F)F)cc2[N+](=O)[O-])cc1	2%	0.4%	5	-4%
Cc1ccc2c(C)c(C)c(=O)n(C)c2c1	-3%	-2.9%	.	.
C1CCC2=NCCCN2CC1	13%	-2.3%	-7	-9%
O=C(NCc1csc(-c2cccs2)n1)C1CCCCC1	-6%	-2.0%	-2	-65%
CN(CCNC(=O)c1cc2c(-c3ccccc3F)nn(C)c2s1)C1CCCCC1	1%	-0.6%	.	-5%
COc1ccc(CCN2CC(C(=O)N3CCSCC3)CCC2=O)cc1 (stereo not drawn)	2%	2.0%	.	1%
O=C(Nc1cc(Cl)cc(Cl)c1)Nc1cnccn1	6%	-2.1%	.	11%
Cc1ccc(F)c(CNC(=O)C2CCC(=O)N(Cc3ccccn3)C2)c1F (stereo not drawn)	-13%	0.2%	.	-2%
Cc1ccc(C)c(NC(=O)CSc2nnc(-c3ccccc3)n2N)c1	0%	-0.1%	11	8%
Cc1ccc(NC(=O)CN2CCCC2c2cccn2C)cc1C (stereo not drawn)	-3%	2.0%	.	.
O=C(Cc1cccs1)NC(c1ccccc1)c1ccccc1	15%	-0.6%	4	-15%
CC(C)(C)OC(=O)N1CC(O)CC1C(=O)OCC(=O)c1ccc(-c2ccccc2)cc1 (stereo not drawn)	2%	-4.6%	-5[21.1 µM]	-4%
O=Nc1c(O)[nH]c2ccc(Cl)cc12	2%	4.8%	3	-6%
COc1ccc(N2CCN(c3ncccn3)CC2)cc1	-11%	-1.9%	-8	-49%

Next section
SMILES	Rango release inh	Rango complex inh	GLA inh pH 4.5	miR-21 reporter
COc1cccc(Cn2c(-c3nonc3N)nc3ccccc32)c1	-5%	0.4%	1	17%
CCc1nc2ccc(Cc3ccc4nc(CC)[nH]c4c3)cc2[nH]1	1%	0.5%	.	-2%
COC(=O)c1ccc(C)c(NC(=O)CN(c2ccc3c(c2)OCO3)S(C)(=O)=O)c1	2%	-0.7%	4	-9%
Cc1ccc(NS(=O)(=O)Cc2ccccc2)cc1Cl	2%	-1.0%	.	4%
OCCNc1nc(N2CCOCC2)nc(N2CCOCC2)n1	3%	1.1%	2	6%
O=C(OCC(=O)N1CCC(Cc2ccccc2)CC1)c1cc(Cl)ccc1O	26%	1.3%	.	.
Cn1cnnc1SCC(=O)Nc1cccc(C(=O)O)c1	-4%	0.0%	2	-5%
CCOc1cc(S(=O)(=O)n2ccnc2)ccc1Br	?	3.0%	-3	-2%
CCOc1ccc(/C=N/NC(=O)c2ccc(CSc3nc4ccccc4[nH]3)cc2)cc1	10%	-6.3%	30	-12%
O=C(NCCN1CCNCC1)c1ccccn1	-3%	-0.5%	-3	0%
CCOc1ccccc1CN1CCNC(=O)C1CC(=O)NCCc1ccccn1 (stereo not drawn)	-11%	0.7%	.	-9%
Cc1ccc(C)c(N2C(=O)CC(Cc3ccc(Br)cc3)C2=O)c1 (stereo not drawn)	2%	-0.2%	.	9%
O=C(O)c1ccc(S(=O)(=O)N2CCC(NC(=O)C3CCCCC3)CC2)cc1	18%	-1.3%	.	-4%

Bioassay records deposited in PubChem by National Center for Advancing Translational Sciences (NCATS).

A portion of the library. The share of hits here may be higher or lower than overall.
